# Assay outcomes deposited in PubChem by ICCB-Longwood Screening Facility, Harvard Medical School.
# RVFV N-RNA FP: inhibitors of RVFV nucleoprotein–RNA binding, primary screen, biochemical, fluorescence polarization; P21700; 20,000 compounds, 0.1% hits; RVFV N-RNA binding; hits give low values; AID 651828, 2012; % bound, % (test concentration not listed);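 active = between 0 and 58% in either replicate with normal brightness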;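 also: 100 nL library stock added to about 12 µL; 100% = protein and probe without compound and 0% = probe alone; numbers are from one replicate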
# Target sequence (P21700 whole entry, looked up): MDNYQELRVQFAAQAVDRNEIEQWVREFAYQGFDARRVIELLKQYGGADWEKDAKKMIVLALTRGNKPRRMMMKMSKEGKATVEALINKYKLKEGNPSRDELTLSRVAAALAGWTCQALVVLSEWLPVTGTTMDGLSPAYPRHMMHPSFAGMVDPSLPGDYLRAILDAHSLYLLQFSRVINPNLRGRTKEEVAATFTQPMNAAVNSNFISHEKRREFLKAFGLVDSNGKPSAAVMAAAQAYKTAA
# Numbers without * were called inactive; & = joins results of further samples. Some of the compounds tested, so the mix of outcomes need not match the whole.
SMILES,RVFV N-RNA FP
CC(NC(=O)C12CC3CC(CC(C3)C1)C2)C(=O)NC1CCCCC1 (stereo not given),96
CC(CS(=O)(=O)c1ccccc1)N1CCOCC1 (stereo not given),99
Cc1cc(NO)nc(-c2ccc(Br)cc2)n1,93
CC(O)Cc1nnc(SCc2nnc(-c3ccccc3)o2)n1-c1ccccc1 (stereo not given),96
Cc1onc(-c2ccccc2)c1NC(=O)Nc1ccc(OC(F)F)cc1,96
Cc1nc(SCC(=O)Nc2cccc(C(F)(F)F)c2)[nH]c(=O)c1C,98
O=C(CSc1ncnc2c1oc1ccccc12)Nc1cccc2ccccc12,100
CCOC(=O)c1csc(N2CCc3ccccc32)n1,88
O=C1/C(=C\c2cccs2)SC(=S)N1CC1CCCO1 (stereo not given),96
C=CCn1c(SCCC(=O)NCc2ccc3c(c2)OCO3)nc2scc(-c3ccco3)c2c1=O,97
NC(=O)c1oc2ccccc2c1NC(=O)C1CC(=O)N(c2ccc(F)cc2)C1 (stereo not given),96
CCCc1n[nH]c2c1/C(=N\OCC)CC(C)(C)C2,91
O/N=c1/sc2ccccc2n1CCS,92
CC(=O)Nc1ccc(N/C=C/C(=O)c2ccco2)cc1,110
Nc1c(C(=O)NCc2cccs2)c2nc3ccccc3nc2n1-c1ccc2c(c1)OCO2,95
CNC(=S)Nc1ccc(OC(F)(F)F)cc1,91
N#C/C(=C(/N)Sc1ccccc1N)c1cccc(C(O)c2ccncc2)c1 (stereo not given),95
N#Cc1c(N)c(C(=O)c2ccccc2)n2ccccc12,99
CCOC(=O)C(C)(C)Oc1ccc(Cl)cc1,86&97
C=CCNC(=S)NC1C2CN3CCN(C2)CC1(C)C3 (stereo not given),92
CCOC(=O)C1=C(N)Oc2cc(C)n(C)c(=O)c2C1c1ccncc1 (stereo not given),94
CN(CC(=O)NC1CC(C)(C)NC(C)(C)C1)S(=O)(=O)c1ccc(Br)cc1,96
C/C(=N\NS(C)(=O)=O)c1ccc(C)cc1,93
CCn1c(C)cc(O)c(C(c2ccc(OC)cc2)N2CCN(C)CC2)c1=O (stereo not given),106
C=CCn1c(SCC)nc(O)cc1=O,95
CCCNC(=O)c1ccc(C(=O)NCCC)cc1,93
CN1CCN(C(=S)C(=O)Nc2ccccc2)CC1,103
NCCCCN,102
COc1cc2c(cc1OC)C(c1cccnc1)N(C(C)=O)CC2 (stereo not given),91
CCN(CC)S(=O)(=O)c1ccc(NC(=O)Nc2ccc(F)cc2)cc1,99

# Structures above that have bromine (two):
SMILES,RVFV N-RNA FP
Cc1cc(NO)nc(-c2ccc(Br)cc2)n1,93
CN(CC(=O)NC1CC(C)(C)NC(C)(C)C1)S(=O)(=O)c1ccc(Br)cc1,96

# Carrying on.
SMILES,RVFV N-RNA FP
COc1cc2c(CCNC(C)=O)c[nH]c2cc1Cl,93
Cc1ccc(-n2ncc3c(SCC(=O)NC(C)C)ncnc32)c(C)c1,109
CCOC(=O)CN=Cc1c(O)[nH]c2ccccc12,90
COCCn1c(=NC(=O)CSC(C)=O)sc2cc(OC)ccc21,91
CC1CN(C2=NC(=O)/C(=C\c3ccccc3)S2)CC(C)O1 (stereo not given),91
O=C1CN(c2ccc(OC(F)(F)F)cc2)C(=O)CN1CC1CC1,97
NC1C=CC=C(C(=O)O)C1 (stereo not given),105
NC(=O)C1CCCN(S(=O)(=O)c2ccccc2)C1 (stereo not given),98
O=C(NC(C(=O)O)C12CC3CC(CC(C3)C1)C2)C1CCCCC1 (stereo not given),96
CN1C(=O)C(=CN2CCc3ccccc32)C(=O)N(C)C1=O,104
COc1ccc(C)c2sc(NNC(=O)C3=COCCO3)nc12,91
N#C/C(=C\c1ccc(OC(=O)c2ccco2)cc1)C(=O)Nc1ccccc1Br,94
Fc1ccc(CN2CCc3ccccc3C2)cc1Br,88
Oc1cc(-c2nc3ccccc3o2)c(O)cc1-c1nc2ccccc2o1,93
Cc1nnc(SCc2cc(=O)[nH]c(=S)[nH]2)s1,99
O=C(CN1CCSCC1)N/N=C/c1ccc(Br)cc1,101
O=C(O)CSc1nc(-c2ccccc2)cc(=O)[nH]1,99
CCn1nnc2c(N3CCN(c4ccccc4Cl)CC3)ncnc21,84
O=C1CCOc2ccc3ccccc3c21,98
O=C(NC(=S)NC1C2CC3CC(C2)CC1C3)c1ccco1 (stereo not given),101
O=c1[nH]c(O)c(/C=N/Nc2ccccc2)c(=O)[nH]1,99
Fc1ccccc1OCCCOc1ccccc1F,96
CC(C)CNS(=O)(=O)c1ccc2nc(NC(=O)c3ccccn3)sc2c1,89
COC(=O)c1ccccc1NC(=O)c1oc2ccc(F)cc2c1C,89
CC1(C)CC(=O)C2=C(C1)OC(N)=C(C#N)C21C(=O)c2ccccc2C1=O,107
COc1ccc2c3c(c(=O)oc2c1OCC(=O)C(C)(C)C)CCCC3,98
C/C(=C\C(=O)Nc1cscc1C)C(=O)O,100
O=C(NCCCN1CCCC1=O)c1ccc2c(c1)OCCO2,91
CCC(C)C12CN3CCN(CC(C)(C3)C1=O)C2 (stereo not given),109
CCC1CCCCN1C(=S)Nc1ccc(OC(F)F)cc1 (stereo not given),94
NC[C@H](O)c1ccc(O)c(O)c1,95&95&99
NC(=O)c1nnn(Cc2ccc(Cl)cc2)c1N,99
COc1cccc(-c2ccc(=O)n(CC(=O)N3CCN(c4ccccc4)CC3)n2)c1,87
Cc1ccc(Nc2nc(N)nc(CN3CCCCCC3)n2)c(C)c1,99
COC(=O)/C(C#N)=C/N(C)C,98
O=C(NN1CC(C(=O)OCc2ccccc2F)CC1=O)c1ccccc1 (stereo not given),98
CCCCCCCCCCCCCCCCn1cc[n+](Cc2ccccc2)c1C,98
CN1C(=O)S/C(=C\c2ccccc2Br)C1=O,95
S=C(NNc1ccccc1)Nc1ccccc1,99
CCOc1ccccc1OC(=O)C(C)(C)C,102
COC(=O)c1ccc(CSc2cc(C)[nH]c(=O)n2)o1,101
O=C(O)CCC(=O)Nc1ccc(Oc2ncnc3cc(Cl)ccc23)nc1,97
NC(=O)C(=O)O,93
Cc1nnc(SCCCCSc2nnc(C)n2N)n1N,87
Brc1ccc(CNc2ccc3cn[nH]c3c2)s1,90
CC1(CCc2ccc3c(c2)OCO3)NC(=O)c2ccccc2N1 (stereo not given),99
CC(C)[C@@]1(NC(=O)[C@@H]2C[C@@H]3c4cccc5[nH]cc(c45)C[C@H]3N(C)C2)O[C@@]2(O)[C@@H]3CCCN3C(=O)[C@H](Cc3ccccc3)N2C1=O,94
CCSc1cnn(C2CCCCC2)c(=O)c1Cl,107
CCC(C)(C)NC(=O)Cc1ccc(F)cc1,95
CC(=O)SCC(C)C(=O)O (stereo not given),89
# Next section.
SMILES,RVFV N-RNA FP
O=C1CN(C(=O)COc2ccccc2)c2ccccc2N1,100
CC(c1ccccc1)n1c(SCc2nc(-c3ccc(C(C)(C)C)cc3)no2)n[nH]c1=O (stereo not given),95
COc1ccccc1NC(=O)CSc1nnc2sc3ccccc3n12,101
O=C1CC(C(=O)O)S/C(=N\N=C2CCCC2)N1 (stereo not given),97
O=C1c2ccccc2C(=O)N1CCSc1ccccc1,104
Cc1ccc(=O)n(Cc2ccc(F)cc2)n1,88
CC1CCCN(C(=S)NC2CCCC2)C1 (stereo not given),101
S=c1[nH]nc(-c2ccc(Cl)cc2)n1C1CCCCC1,104
CC(C)C(NC(=O)Nc1ccc(Cl)cc1)C(C)C,99
CCOCCC(=O)N1CCC(C(=O)OCC)CC1,99
O=C(CN1CCCCC1)Nc1ccccc1-c1nc2ccccc2[nH]c1=O,97
N#Cc1nc(-c2cccs2)oc1N1CCCC1,112
CN(Cc1ccccc1)C(=O)c1cccc(-c2nnc(-c3ccccc3)o2)c1,99
CC(C)(CC(=O)O)CC(=O)Nc1ccc(F)cc1,95
Cc1cc(C)c(-n2nnnc2SCC(=O)c2cc3ccccc3o2)c(C)c1,96
O=C(Nn1cnc2c(cnn2-c2ccccc2)c1=O)C1CCCC1,103
CC1=NN(C(=O)CC#N)C(O)(c2ccccc2)C1 (stereo not given),93
COC(=O)c1c(-c2c(Cl)cccc2Cl)noc1NC(=O)NCc1cccs1,89
CC1CN(C(=S)c2ccccc2)CC(C)O1 (stereo not given),97
CN(C)/C=C1\CCCc2ccccc2C1=O,90
O=C(Nc1ccc2c(c1)OCO2)c1ccc2c(c1)C(=O)N(C1CCCCC1)C2=O,97
CN(Cc1ccccc1)Cc1ccccc1O,102
Cc1cc(C)c(C#N)c(N2CCN(CCOc3ccc(Cl)cc3)CC2)n1,95
COc1ccc2oc(=O)c(C(=O)NCCN3CCOCC3)cc2c1,98
Cc1nc2sc3c(c2c(=O)n1O)CCCC3,99
O=C1C(=O)N(c2ccccn2)C(c2ccccc2)/C1=C(/O)c1ccccc1 (stereo not given),90
CC(=O)NNc1ncc(C(F)(F)F)cc1Cl,85
N#C/C(=C\N1CCN(c2ccccc2)CC1)S(=O)(=O)c1ccccn1,95
N#CCC(Cc1ccccc1)c1ccco1 (stereo not given),93
O=C(NCCOc1ccccc1)c1ccc2c(c1)OCO2,92
CCN(CC)CCNC(=O)c1c(C)[nH]c(/C=C2\C(=O)Nc3ccc(Cl)cc32)c1C,109
Cc1cccc2nc(CSc3nnc(-c4ccccc4)o3)cn12,98
CCc1ccc(C(=O)Nc2nncs2)cc1,99
Clc1ccc2c(N3CCN(CCCN4CCN(c5ccnc6cc(Cl)ccc56)CC4)CC3)ccnc2c1,92
CCOc1ccccc1C(=S)N1CCOCC1,90
Cc1ccc(-c2nc(C#N)c(NCCN(C)C)o2)cc1,93
O=C(N[C@@H](Cc1ccc(O)cc1)C(=O)O)OCc1ccccc1,96
Clc1ccc2nc(N3CCCC3)nc(-c3ccccc3)c2c1,92
COC(=O)C1=C(C)NC(=O)C1(NS(=O)(=O)c1ccc(C)cc1)C(F)(F)F (stereo not given),99
CCN(CC)CC(=O)Nc1ccc(Oc2ccc(NC(=O)CN(CC)CC)cc2)cc1,106
CNC(=O)c1cc(C)c(-c2ccccc2)s1,97
Cc1ccc(CNC(=S)NC2CCN(C)CC2)cc1,98
O=C(CCc1ccccc1)N1CCN(c2ccc(N3CCCCCC3)nn2)CC1,99
CCCCS(=O)(=O)c1sc2nc(C)cc(C)c2c1N,98
CC(=O)Nc1cccc(SC(F)(F)F)c1,105
COc1ccc(C(O)c2nccn2C)cc1 (stereo not given),105
CCOC(=O)CSc1nc(C#N)c(SCC(=O)OCC)s1,99
CCc1cccc2c3c([nH]c12)C(CC)(CC(=O)O)OCC3 (stereo not given),97&101
CCC(=O)NC1CC(=O)N(c2ccc(F)cc2)C1 (stereo not given),89
O=C(COc1ccccc1O)NCCO,89

# Structural class: the entries above containing a COOH group.
SMILES,RVFV N-RNA FP
NC1C=CC=C(C(=O)O)C1 (stereo not given),105
O=C(NC(C(=O)O)C12CC3CC(CC(C3)C1)C2)C1CCCCC1 (stereo not given),96
O=C(O)CSc1nc(-c2ccccc2)cc(=O)[nH]1,99
C/C(=C\C(=O)Nc1cscc1C)C(=O)O,100
O=C(O)CCC(=O)Nc1ccc(Oc2ncnc3cc(Cl)ccc23)nc1,97
NC(=O)C(=O)O,93
CC(=O)SCC(C)C(=O)O (stereo not given),89
O=C1CC(C(=O)O)S/C(=N\N=C2CCCC2)N1 (stereo not given),97
CC(C)(CC(=O)O)CC(=O)Nc1ccc(F)cc1,95
O=C(N[C@@H](Cc1ccc(O)cc1)C(=O)O)OCc1ccccc1,96
CCc1cccc2c3c([nH]c12)C(CC)(CC(=O)O)OCC3 (stereo not given),97&101

# Next section
SMILES,RVFV N-RNA FP
CN1CCN(CC(=O)N/N=C/c2ccc(F)c(F)c2)CC1,92
Cc1ccc(NC(=O)CC2S/C(=N/N=C/c3cccs3)NC2=O)cc1 (stereo not given),99
CN(C)/C=C/C(=O)c1cc(-c2ccccc2)no1,95
CCOC(=O)c1cnc2c(c(C)nn2C)c1NCc1ccco1,109
COc1ccc(C2(C(=O)NCC3CCCO3)CCOCC2)cc1 (stereo not given),105
CC12CN(C(=O)c3ccccc3)C3(C#N)CC1CCC23C (stereo not given),87
CN1CCCC(n2nc(Cc3ccc(Cl)cc3)c3ccccc3c2=O)CC1 (stereo not given),94
CCOC(=O)C1CCN(Cc2nc3ccccc3c(=O)n2-c2ccc(OCC)cc2)CC1,97
Cc1ccc(S(=O)(=O)c2[nH]c(=S)sc2N2CCOCC2)cc1,97
CCN=C1S/C(=C2\C(=O)N(C(C)=O)c3ccccc32)C(=O)N1CC,107
NC(=O)C1CCCN(C(=O)Nc2ccc(F)cc2)C1 (stereo not given),97
COc1ccc(N=Cc2c(O)[nH]c3ccccc23)cc1,91
COc1cccc(C(=O)COC(=O)c2cncc(Br)c2)c1,97
Cc1cc(NCc2ccccc2)nc(-c2ccccc2O)n1,94
CC(=O)C1C(=O)C=C(C)OC1=O (stereo not given),98
COc1ccccc1N1CCN(CCCCNC(=O)c2ccco2)CC1,97
O=C(CSc1ncn[nH]1)NCc1ccccc1,91
CCOc1ccc2c(C)c(Cl)c(=O)oc2c1C,96
Cc1c(C#N)c(N)nc(SCC(=O)c2cc3ccccc3oc2=O)c1C#N,92
O=C(CSc1nc(-c2ccccc2)c(-c2ccccc2)[nH]1)NCc1ccco1,94
Cc1c(Cl)cccc1N=C1SCC(=O)N1Cc1ccco1,104
CC(SC1=NCCS1)C(=O)Nc1nnc(-c2ccc(Cl)cc2)s1 (stereo not given),96
O=c1[nH]c(SCc2ccccc2)nc(O)c1Cc1ccccc1,101
O=C(NCCNc1ccc(C(F)(F)F)cn1)Nc1ccccc1Cl,103
O=C1C=C(c2ccccc2)C(=O)c2ccccc21,102
NC(N)=NC(N)=Nc1ccccc1,94
COc1cccc(N2CCN(Cc3ccsc3)CC2)c1,95
S=C1NC(=S)NC(c2ccc3c(c2)OCO3)N1,96
CNC(=S)Nc1cccc(C(F)(F)F)c1,96
CC(C)(C)NC(=O)NCC1CCCC1NC(=O)NC(C)(C)C (stereo not given),98
CCCCN(Cc1ccccc1)Cc1ccccc1O,98
